TRPV1 PAM – enhances activation of the human vanilloid receptor TRPV1. 320,000 compounds, 0.02% hits. TRPV1-expressing cells, Fluo-8 calcium influx, capsaicin EC20 potentiation; host cell line not named in the record; control for the full effect not named in the record. Q8NER1. potentiation, % at 8.33 µM; active means potentiation above 80%; inconclusive means 30% to 80%; inactive means below 30%; also: 0% is about no effect
Target sequence (Q8NER1 whole entry, looked up): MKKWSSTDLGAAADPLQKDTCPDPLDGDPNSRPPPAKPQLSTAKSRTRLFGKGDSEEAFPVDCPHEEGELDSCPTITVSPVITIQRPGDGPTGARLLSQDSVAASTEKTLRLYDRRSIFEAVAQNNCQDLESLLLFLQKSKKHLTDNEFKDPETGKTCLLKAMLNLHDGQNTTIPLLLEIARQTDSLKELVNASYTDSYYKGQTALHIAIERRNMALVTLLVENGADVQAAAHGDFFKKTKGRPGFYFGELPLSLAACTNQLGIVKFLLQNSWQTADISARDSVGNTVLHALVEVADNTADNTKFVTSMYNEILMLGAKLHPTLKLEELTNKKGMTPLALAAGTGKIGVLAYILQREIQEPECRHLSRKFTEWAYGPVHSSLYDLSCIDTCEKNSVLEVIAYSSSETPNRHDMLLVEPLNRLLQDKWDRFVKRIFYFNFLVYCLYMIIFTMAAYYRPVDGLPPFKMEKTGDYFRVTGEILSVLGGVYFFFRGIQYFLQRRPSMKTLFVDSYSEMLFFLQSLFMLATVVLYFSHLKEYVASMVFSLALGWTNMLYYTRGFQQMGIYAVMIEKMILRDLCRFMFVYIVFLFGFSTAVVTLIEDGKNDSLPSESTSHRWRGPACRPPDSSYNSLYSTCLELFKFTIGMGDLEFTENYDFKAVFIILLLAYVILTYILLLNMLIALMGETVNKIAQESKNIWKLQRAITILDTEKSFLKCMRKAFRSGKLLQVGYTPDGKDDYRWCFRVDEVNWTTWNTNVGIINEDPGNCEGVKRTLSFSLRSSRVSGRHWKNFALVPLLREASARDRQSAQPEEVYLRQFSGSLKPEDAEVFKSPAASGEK
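TRPV1-expressing cells were cultured overnight at 35.5C and loaded with Fluo-8 calcium dye for 40 to 90 min at room temperature. After a 10 s baseline, compound was added and calcium influx was read kinetically for 3 min (ex 480/em 520 nm).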
TRPML1 agonist – human mucolipin-1 channel agonism; TRPML1-expressing cells, Ca2+ dye fluorescence, FDSS; host cell line not named in the record; reference of the full effect not given here; activation, % (concentration not given with the values); 410,000 compounds, 0.12% hits; AID 624414; in the data active = activation above about 50%; inconclusive = about 30% to 50%; inactive = below about 30%; also: 0% is about no effect; the text of the record puts the active cut at 80%
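Tetracycline-induced TRPML1-DL cells are seeded and incubated overnight before loading with a no-wash Ca2+ dye and quencher. Agonist activity is taken from the 110 s fluorescence read following compound pin-transfer on an FDSS, before EC80 54-4 challenge.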
CtBP-E1A blk – CtBP/E1A binding inhibition; AlphaScreen GST-E1A/His-CtBP binding, 1536-well; active compounds read low; control for the full effect not named in the record; activity change, % (concentration not given with the values); 340,000 compounds, 0.49% hits; AID 651724; in the data active means activity change below about -65%; inconclusive means about -30% to -65%; inactive means above about -30%; also: % is scaled to controls: 0 for no effect and ±100 for the full control effect
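AlphaScreen with 125 nM GST-E1A and 125 nM His-CtBP (5X stocks) in Tris pH 8.0, 300 mM NaCl, BSA, Tween 20, TCEP. Compounds preincubated 2 h at 37 deg C, then glutathione donor/nickel acceptor beads added for 1 h at 37 deg C in dark.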
Six1-Eya2 blk – Six1/Eya2 interaction inhibition; Q15475+O00167; AlphaScreen GST-Six1/His-Eya2 binding, biochemical; active compounds read low; control for the full effect not named in the record; activity change, % (test concentration not listed); 360,000 compounds, 0.56% hits; AID 651725; in the data active = activity change below about -65%; inconclusive = about -30% to -65%; inactive = above about -30%; also: % is scaled to controls: 0 for no effect and ±100 for the full control effect
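AlphaScreen luminescence read after one hour at 37 °C in darkness. Pin-transferred compounds met GST-Six1 and His-Eya2 protein (5X stock 250 nM/500 nM) plus glutathione donor and Ni-chelate acceptor beads (5X, 50 ug/mL).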
TRPML1 blocker – inhibitors of human TRPML1 channel | 390,000 compounds, 0.02% hits | activity change, negative = inhibition, % (test concentration not listed) | Q9GZU1 | TRPML1-inducible cells, Ca2+ dye fluorescence, FDSS; active compounds read low; inhibition of EC80 agonist-evoked calcium signal | AID 624415; in the data active means activity change below about -50%; inconclusive means about -30% to -50%; inactive means above about -30%;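 also: stimulus is agonist 54-4 at its EC80 concentration; % is scaled to controls: 0 for no effect and ±100 for the full control effect; compound concentration not given in the record; the text of the record puts the active cut at -80%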
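Calcium fluorescence in TRPML1-DL cells induced overnight with Tet: a 110 s read after compound pin addition, then a 110 s antagonist read after challenge with 54-4 at 4 uM final (EC80).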
D2 potentiator – potentiates the human D2 dopamine receptor allosterically. P14416. DiscoveRx D2 beta-arrestin cells, luminescence, 90 min; 100% = 57 uM dopamine signal. potentiation, % (no concentration beside the values). 360,000 compounds, 0.23% hits; active = potentiation of 50% or more; inconclusive = 30% to 50%; inactive = 30% or less;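 also: compound concentration not given in the record; tested on top of an EC20 dose of dopamine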
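PathHunter D2 cells, attached overnight at 37 deg C, received compound in DMSO plus dopamine at EC20 (50 nM final) for 90 min at 37 deg C. Beta-arrestin recruitment was read as luminescence after 1 h with detection reagent at ambient temperature.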
* = called active by the depositor; ? = inconclusive; · = not tested or not shown; & = joins results of further samples.

SMILES	TRPV1 PAM	TRPML1 agonist	CtBP-E1A blk	Six1-Eya2 blk	TRPML1 blocker	D2 potentiator
Cc1ccc(C)c(SCC(=O)OC/C(O)=C(\C#N)c2nc3ccccc3[nH]2)c1	-1.6	-0.4	-4.5	-5.1	-1.8	5.4
CC(C)(C)C(=O)C1=C(O)C(=O)N(c2ccccc2)C1c1ccccc1 (stereo not drawn)	4.2	1.3	9.6	2.9	1.4	-4.0
COc1ccc(OC)c(C(C)NC(=O)C(C)n2cc([N+](=O)[O-])cn2)c1 (stereo not drawn)	-6.0	0.5	·	4.2	-0.5	0.1
COc1cc(C(=O)OCC(=O)Nc2ccccc2C(=O)NC2CC2)c([N+](=O)[O-])cc1OC	-0.5	2.9	-18.0	-1.9	-4.7	-0.1
CC(=O)c1ccc(NC(=O)CSc2nnc(-c3ccncc3)n2C2CC2)cc1	5.1	2.3	-3.1	-4.8	-12.0	-9.9
O=C(OCC(=O)N1CCc2ccccc21)C1CCCN1S(=O)(=O)c1ccc(Cl)cc1 (stereo not drawn)	-3.3	1.2	-3.6	9.4	48.7	-2.6
Clc1ccccc1Nc1nc(NCc2cccs2)nc2ccsc12	·	-0.8	0.8	0.1	·	-8.3
CC1CCN(c2cc(N3CCOCC3)c([N+](=O)[O-])cc2F)CC1	-12.3	2.9	-6.5	-13.0	0.1	4.9
CCCOc1ccc2oc(=O)c3c(c2c1)CCCN3C(=O)CN(C)Cc1ccccc1	-6.9	4.0	-11.4	-8.3	57.6	-29.0
CCOC(=O)c1sc(NC(=O)C2CC=CCC2C(=O)O)nc1C (stereo not drawn)	10.7	0.3	-0.2	-9.5	-8.2	-0.8
Cc1ccc(OCCCSc2ncccn2)cc1C	0.5	1.9	38.8	37.9	4.4	-6.8
CC1CCCN(C(=O)COC(=O)CNC(=O)c2sc3ccccc3c2Cl)C1 (stereo not drawn)	7.2	0.1	10.8	1.8	5.3	-3.9
Cn1c(=O)n(CCc2ccccc2)c(=O)c2c1nc1n2CCN1Cc1ccco1	-8.2	2.9	?	-26.1	11.8	-1.4
Cc1cc(C)n2nc(C(=O)OCCOc3cccc(Br)c3)nc2n1	-5.6	2.1	-6.3	-11.4	-14.5	-14.2
COc1ccc(CC(=O)n2[nH]c(=O)ccc2=O)cc1OC	15.3	0.5	0.0	-15.3	-4.5	-12.3
CCCCSc1nc2c(cnn2-c2ccc(C)c(C)c2)c(=O)[nH]1	9.6	0.1	0.1	12.1	1.8	-11.9
CC(=O)c1ccc(N2CCN(c3ncc(C(F)(F)F)cc3Cl)CC2)cc1	4.4	-0.6	-0.8	-9.6	1.3	15.3
CC(=O)c1cccc(NC(=O)CN2C(=O)NC(C)(c3ccc4c(c3)OCCCO4)C2=O)c1 (stereo not drawn)	14.0	1.8	·	2.3	-7.1	-2.5
CN(/N=C/c1cc([N+](=O)[O-])ccc1O)c1ccccc1	10.3	0.0	-1.6	-8.8	-10.8	-17.9
O=S1(=O)CCOC[C@H](Cc2ccccc2)N1Cc1ccc(Cl)cc1	·	0.7	8.1	5.6	0.4	-3.9
O=C1CNC(=S)N1CCc1ccc(Cl)cc1	-10.2	1.0	-8.3	3.7	24.4	-6.3
CCC(C)c1ccc(OCc2ccc(C(=O)O)o2)cc1 (stereo not drawn)	5.1	0.4	-5.2	-5.2	-17.3	-10.7
CCCCn1c(-c2ccc([N+](=O)[O-])cc2)n[nH]c1=S	6.4	-0.6	-2.7	3.1	-8.9	-8.5
CN(C(=O)c1cccc(NC(=O)Cc2ccc(NC(=O)C3CCN(C(=O)C4CCC4)CC3)cc2)c1)C1CCC1	·	-0.5	1.7	-5.1	6.8	·
CC(=O)N1CCN(c2ncnc3ccccc23)CC1	1.4	0.2	-6.8	1.3	9.2	-3.3
CCOC(=O)C(CCCCOc1ccc([N+](=O)[O-])cc1)C(=O)OCC	2.4	0.8	-1.2	13.9	-8.6	-8.9
CCc1ccc(OCC(=O)N/N=C(\C)c2ccc(OC(F)F)cc2)cc1	22.0	6.3	-1.6	1.3	-10.8	-6.5
O=c1[nH]c(-c2ccc(F)cc2)nc2c1sc(=S)n2-c1ccccc1	5.0	-0.8	-0.7	2.8	-8.2	-1.5
CN(C)S(=O)(=O)c1cc(NC(=O)COC(=O)CCSc2ccc(Cl)cc2)ccc1Cl	27.8	2.6	0.5	7.0	-14.1	-1.1
CC(C)(C)OC(=O)NCCCC(CCCNC(=O)OC(C)(C)C)C(=O)O	9.1	-0.7	2.4	4.8	4.6	-27.2
COc1cccc(OC)c1OCCNCC1CSc2ccccc2O1 (stereo not drawn)	·	0.0	-2.5	-0.6	14.3	-27.0
Cn1c(=O)n(CC(=O)O)c(=O)c2c1nc1n2CCS1	15.6&11.4	-0.4&3.2	-3.9&8.5	-3.8&0.3	-2.7&-4.1	-4.4&-3.1
CSCCC(C(=O)N1C[C@]2(C)C[C@H]1CC(C)(C)C2)N1C(=O)c2ccccc2C1=O (stereo partly drawn)	-12.8	-1.0	-1.9	-2.4	-10.7	-16.8
COc1ccccc1Nc1cc(C(=O)NCCCN2CCOCC2)c2ccccc2n1	·	-0.6	2.7	2.9	-6.2	-4.4
COc1ccc(CCNC(=O)/C(C#N)=C2\N=C(NC(=O)c3ccco3)c3ccccc32)cc1	22.9	0.3	1.0	1.8	-1.9	-8.5
COc1ccc(CC(NC(C)=O)C(=O)N2CCN(C(=O)Nc3cccc(F)c3)CC2)cc1OC (stereo not drawn)	-10.0	0.5	·	-1.3	-25.6	-5.0
COc1ccc(C)cc1NC(=O)c1ccc(NS(=O)(=O)c2cccc3cccnc23)cc1	-0.1	0.7	-0.1	-4.6	38.9	-4.1
Cc1cc2c3c([nH]c2cc1S(=O)(=O)NCc1ccc(CN2CCCCCC2)o1)CC(C)(C)CC3=O	6.1	-0.6	-0.5	-1.3	8.9	-29.4
Cc1ccc(-c2[nH]nc3c2C(c2ccccc2OC(=O)N2CCOCC2)C(C#N)=C(N)O3)cc1 (stereo not drawn)	-26.8	1.0	38.4	13.0	-7.0	-7.7
Cc1c(C(=O)N2CCCCCC2)c(S(=O)(=O)NCc2ccccc2Cl)c(C)n1C	-0.4	-0.5	-8.0	-0.7	-12.2	-7.6
CC(NC(=O)CN1CCC(C(N)=O)CC1)c1ccccc1 (stereo not drawn)	3.8	-0.2	5.7	3.9	-21.3	-0.5
CCN(CC)S(=O)(=O)c1ccc2c(c1)nc(CCC(=O)OCC(=O)N1CCc3ccccc31)n2C	17.4	-1.3	-2.7	-8.6	-4.9	-6.0
CCOc1ccc2nc(SCC(=O)NC3CCCCC3)[nH]c2c1	-6.0	1.9	-0.1	1.4	-7.4	2.5
CC1C/C(=N/Nc2ccc([N+](=O)[O-])cc2[N+](=O)[O-])CC(C)(C)C1 (stereo not drawn)	17.9	-0.1	-29.6	?	55.2	?
Cc1cc(C)c(C#N)c(SCC(=O)NC2CC2)n1	15.0	0.0	1.8	9.4	0.5	-5.3
COc1ccc(S(=O)(=O)Nc2ccc3c(c2)C(=O)N([C@H](C)CO)C[C@H](C)[C@@H](CN(C)C(=O)Nc2ccc4c(c2)OCO4)O3)cc1	·	-0.6	-0.8	-3.4	4.9	-25.4
Cc1cccc(NC(=O)Cn2cnc3c(oc4ccccc43)c2=O)c1C	1.1	0.0	9.5	13.3	9.3	-0.2
COc1ccc(NC(=O)Cn2nnc(-c3ccccc3NC(=O)C3CC3)n2)cc1	5.4	1.2	-0.2	4.3	27.4	-11.5

A draw from above in order of count of non-hydrogen atoms, low to high.
SMILES	TRPV1 PAM	TRPML1 agonist	CtBP-E1A blk	Six1-Eya2 blk	TRPML1 blocker	D2 potentiator
CC1CCCN(C(=O)COC(=O)CNC(=O)c2sc3ccccc3c2Cl)C1 (stereo not drawn)	7.2	0.1	10.8	1.8	5.3	-3.9
Cc1ccc(C)c(SCC(=O)OC/C(O)=C(\C#N)c2nc3ccccc3[nH]2)c1	-1.6	-0.4	-4.5	-5.1	-1.8	5.4
Cc1c(C(=O)N2CCCCCC2)c(S(=O)(=O)NCc2ccccc2Cl)c(C)n1C	-0.4	-0.5	-8.0	-0.7	-12.2	-7.6

(continued)
SMILES	TRPV1 PAM	TRPML1 agonist	CtBP-E1A blk	Six1-Eya2 blk	TRPML1 blocker	D2 potentiator
CCc1cc(CNC(=O)CC2C(=O)NCCN2Cc2cccc(OC)c2)on1 (stereo not drawn)	-5.7	2.1	-20.3	2.9	2.1	-0.8
CCOC(=O)C1=CC[C@@H](c2ccccc2)N(S(=O)(=O)c2ccc(C)cc2)[C@H]1/C=C/c1ccccc1	·	0.5	1.3	-1.8	64.6	-4.9
Nc1nnnn1/N=C/c1ccccc1Cl	·	-0.7	-0.1	-9.6	10.9	0.8
CCc1ccc(/C=C2\SC(=S)N(CCCC(=O)Nc3ccc(C(=O)O)cc3)C2=O)cc1	11.0	0.4	-27.5	-8.5	32.1	7.8
O=C(Nc1nc(-c2ccco2)c(-c2ccco2)s1)c1c(F)cccc1Cl	4.2	-1.3	·	-25.4	5.0	-0.1
CC(C)c1onc(C(=O)Nc2cccc(O)c2)c1[N+](=O)[O-]	-19.4	0.5	-1.8	5.1	5.7	6.0
Cc1ccccc1Cn1c(C)c(C(=O)NCc2ccc(Cl)c(Cl)c2)sc1=O	·	1.7	-7.9	-8.8	·	3.5
Cc1ccnc(NC(=O)CCCOc2ccccc2)c1	-2.3	-0.9	7.8	-2.1	1.3	1.6
CC1=C(C(=O)OCC(C)C)C23C(=O)c4ccccc4C2(O1)OC(N)=C3C#N (stereo not drawn)	-2.7	1.3	-5.4	-4.7	-20.1	9.1
COCc1c(C(=O)N2CCN(Cc3nc4ccccc4s3)CC2)oc2ccccc12	-8.3	3.0	-13.6	3.1	5.8	3.5
C/C(=C\C(=O)c1ccc(Br)cc1)NCc1ccc(C)cc1	11.9	0.3	31.9	22.3	11.3	0.9
CC(=O)n1nc(-c2ccccc2)cc1-c1ccccc1	·	-0.4	15.7	2.4	6.7	-6.7
Cc1cc2c(=O)n(C)c(SCC(=O)Nc3cccc(F)c3)nc2s1	-4.2	1.6	-7.9	8.7	-6.6	-0.5
CC(=O)NC12CC3CC(C1)CC(C(=O)OCC(=O)Nc1ncc(Cl)c(C)c1Cl)(C3)C2	-19.8	2.6	-13.5	-2.3	16.0	-12.5
COc1ccc(OCC(=O)Nc2ccc(S(=O)(=O)N3CCCCC3)cc2)cc1	1.5	-0.7	3.0	-13.0	-2.4	-0.6
CCOc1cc(C(=O)Oc2cc(C)[nH]c(=O)c2[N+](=O)[O-])cc(OCC)c1OCC	13.7	3.1	·	7.6	5.5	-1.3
O=C(O)c1cnn2cc(-c3[nH]ncc3[N+](=O)[O-])cnc12	10.5	0.8	-5.9	-12.1	1.1	-14.0
CC(C)C(=O)Nc1nnc(S(=O)(=O)N2CCCCCC2)s1	13.8	0.2&0.8	3.5	-3.7	2.0&-11.7	-5.9
CC1CCC(=NNS(=O)(=O)c2ccc([N+](=O)[O-])cc2)CC1 (stereo not drawn)	·	0.4	4.5	9.7	9.7	-1.9
CCCN(CCC)S(=O)(=O)c1cccc(-c2csc(C)n2)c1	-5.4	2.7	9.7	25.6	-5.6	-5.7

Source: PubChem BioAssay (National Center for Advancing Translational Sciences (NCATS))
